# 2A Renilla: FMDV 2A StopGo reporter, Renilla signal; HEK cells with a luciferase reporter of 2A StopGo recoding; 120,000 tested, 0.32% active; Potency, µM (highest dose often 57.5 µM), for the others: at the top dose signal change, negative = less light; active means well fitted falling curve with a large enough effect; inconclusive means small, poorly fitted or top-dose-only effect; inactive means no such curve, though single readings can be large or run the other way; further: nearly all actives have a fitted effect of over 55% in size; overnight with compound
# 2A firefly: FMDV 2A StopGo reporter, firefly signal; Potency, µM (highest dose often 57.5 µM), for inactives: at the highest dose signal change, negative = less light; AID 1745856; 120,000 tested, 0.23% active; HEK cells with a luciferase reporter of 2A StopGo recoding; active = well fitted falling curve with a large enough effect; inconclusive = small, poorly fitted or top-dose-only effect; inactive = no such curve, though single readings can be large or run the other way; further: nearly all actives have a fitted effect of over 60% in size; overnight with compound
# Active calls of the source: *; ? = inconclusive; & = joins results of further samples; [ ] = dose if it differs, or a comment. On the % scale 0 is the no-effect control and ±100 the full control effect; potency means the concentration at half of the fitted maximal effect.
SMILES,2A Renilla,2A firefly
CN(C)CCCNc1oc(/C=C/c2ccc(F)cc2)nc1C#N,0%,0%
CCCN(Cc1cc(=O)[nH]c2c(C)cc(C)cc12)C(=O)Nc1ccccc1OC,17%,17%
O=C1CN(C(=O)Cc2ccc(F)cc2)C(c2ccc(F)cc2)c2cc(Cl)ccc2N1 (stereo not given),5%,-19%
NCCC1C2CC3CC(C2)CC1C3 (stereo not given),5%,-3%
CCn1c(COc2ccc(Cl)cc2)n[nH]c1=S,9%,23%
Cc1ccc(CNC(=O)c2cc3ccc4cccnc4c3[nH]2)cc1,3%,67%[activator]
CCOC(=O)c1nc(C)[nH]c1C(=O)OCC,23%,0%
Cc1ccc(N=C2C=CC(C)(C(Cl)(Cl)Cl)C=C2)cc1 (stereo not given),9%,49%[activator]
Cc1ccc(-c2cc(C(=O)NCc3cnn(C)c3C)c3cc(Br)ccc3n2)cc1,9%,11%
CCOC(=O)CSc1nc2c(c(=O)n(C)c(=O)n2C)n1CCCc1ccccc1,2%,6%
O=C(O)c1cccc(-c2ccc(/C=N/O)o2)c1,1%,?
CN(c1ccccc1)c1nc2c(c(=O)n(C)c(=O)n2C)n1CC(=O)O,-15%,-5%
COc1ccc(F)cc1S(=O)(=O)Nc1cccc(-c2ccc(N3CCCCCC3)nn2)c1,133%[activator],64%[activator]
CC(C)(C)OC(=O)N1CCC(c2c(C(=O)NCc3ccccc3)cnn2-c2ccc(F)cc2)CC1,4%,1%
NC(=O)C1CCN(c2ncnc3c2cnn3-c2cccc(Cl)c2)CC1,-8%,85%[activator]
CC1CCc2c(sc3nnn(Cc4cccc(C(=O)OC(C)C)c4)c(=O)c23)C1 (stereo not given),-11%,-7%
O=C(NCc1ccccc1)c1cc(-c2cccc(Cl)c2)on1,24%,80%[activator]
COc1ccc(NC(=O)CN(C)S(=O)(=O)c2cccc3nsnc23)cc1,-3%,-11%
Cc1[nH][nH]c(=O)c1C(c1cccc(OCc2ccc(Cl)cc2)c1)c1c(C)[nH][nH]c1=O,25%,60%[activator]
CCOC(=O)c1cnc2cc(Cl)c(OC)cc2c1Nc1ccc(Br)cc1C,-7%,-15%
Cc1ccc(OCc2cc(=O)n3c4c(sc3n2)CCCC4)cc1C,-6%,35%[activator]
CCOC(=O)c1noc2ncnc(Nc3cccc(C(F)(F)F)c3)c12,13%,21%
Cc1ccc(C(=O)N2CCN(Cc3ccc(Cl)cc3)CC2)cc1C,?,?
Cc1ccc2cc(CN(CC(C)C)S(=O)(=O)c3ccc(Cl)cc3)c(=O)[nH]c2c1,4%,21%
COC(=O)[C@H](C(C)C)N(CCc1cn(CC2CCCCC2)nn1)S(=O)(=O)c1ccccc1Br,64%[activator],-10%
SMILES,2A Renilla,2A firefly
Cc1ccc2nc(NC(=O)CSc3nccn3Cc3ccc(Cl)cc3)sc2c1,-3%,0%
COc1ccc(OCc2nc(C#N)c(N3CCOCC3)o2)cc1,-4%,19%
Cc1nnc(NC(=O)c2csc(NC3CC3)n2)s1,25%,15%
CC(NCc1ccco1)c1ccccc1 (stereo not given),-1%,-7%
Cc1ccc(Cl)cc1NC(=O)CSc1nc(C)c(C)c(C)c1C#N,-1%,10%
Cc1ccc(-c2nc3n(n2)C(CC(=O)Nc2ccc(C)cc2C)C(=O)N3)cc1 (stereo not given),-5%,7%
COC(=O)c1ccc(/C=C2\CCc3c(C)cc(C)cc3C2=O)cc1,-11%,0%
O=C(Nc1nccs1)c1cc(-c2ccc(F)cc2)nc2ccccc12,3%,18%
COc1cccc(CN(C(=O)c2oc3ccc(Br)cc3c2C)C2CCS(=O)(=O)C2)c1 (stereo not given),11%,36%[activator]
CCOc1ccc(CCNC(=O)Cn2nnc(-c3ccccc3)n2)cc1OCC,10%,-7%
COc1ccccc1Cn1ccn(CC(=O)Nc2c(C)cc(C)cc2C)c(=O)c1=O,-4%,-10%
CCOc1ccc(-c2c(C)nn3c(C)c(C(=O)NCCN(C)C)cnc23)cc1OCC,45%[activator],-16%
COC(=O)C1=C(C)NC(=O)NC1c1cccc(Oc2ccc(Cl)cc2)c1 (stereo not given),?,?
CSc1cccc(NC(=O)CN2C(=O)CCc3cc(S(=O)(=O)N4CCCCC4)ccc32)c1,62%[activator],-14%
O=C(Nc1ccc(Br)cc1Cl)C12CC3CC(CC(C3)C1)C2,-6%,-3%
COc1cc(C(=O)Nc2c(NCC3CCCCC3)c3ccccc3oc2=O)cc(OC)c1OC,-4%,-1%
Cc1ccc(Nc2nc3ccccc3nc2NS(=O)(=O)c2cccs2)cc1,-4%,-9%
COc1cccc(C(=O)Nc2ccc3oc(-c4ccccc4C)cc(=O)c3c2)c1,26%,133%[activator]
CCCCOc1ccc(C(=O)NCCc2sc(-c3cccc(F)c3)nc2C)cc1,15%,-17%
CCN1CCN(c2oc(/C=C/c3ccccc3OC)nc2C#N)CC1,-9%&0%,4%&32%
CC(=O)Nc1ccc(NC(=O)CSc2nc3ccccc3c(=O)[nH]2)cc1,19%,38%[activator]
CCS(=O)(=O)N1CCc2cc(C(=O)Nc3ccc(C)c(Cl)c3)ccc21,22%,96%[activator]
O=c1ccc2cc(S(=O)(=O)NCc3ccc(Br)cc3)ccc2[nH]1,13%,8%
CCCCOC(=O)c1ccc(NC(=O)c2cc(=O)c3ccc(C)cc3o2)cc1,-9%,3%
CNC(=O)CNC(=O)c1cc(Br)ccc1Cl,4%,5%

# Continued; the last five above are carried over.
SMILES,2A Renilla,2A firefly
CC(=O)Nc1ccc(NC(=O)CSc2nc3ccccc3c(=O)[nH]2)cc1,19%,38%[activator]
CCS(=O)(=O)N1CCc2cc(C(=O)Nc3ccc(C)c(Cl)c3)ccc21,22%,96%[activator]
O=c1ccc2cc(S(=O)(=O)NCc3ccc(Br)cc3)ccc2[nH]1,13%,8%
CCCCOC(=O)c1ccc(NC(=O)c2cc(=O)c3ccc(C)cc3o2)cc1,-9%,3%
CNC(=O)CNC(=O)c1cc(Br)ccc1Cl,4%,5%
O=C(O)CN(CCO)CCO,-1%,-6%
COCCn1cnnc1SC(C)C(=O)c1ccc(F)cc1 (stereo not given),10%,6%
CCOc1ccccc1NC(=O)CSc1nc2ccccc2nc1Cc1ccc(C)cc1,17%,-8%
Cc1ccc(CNC(=O)CSc2nc3ccccc3o2)cc1,-2%,7%
COC(=O)CNC(=O)c1cc2sccc2n1Cc1ccccc1,-7%,-1%
O=C(COC(=O)COc1ccc2ccccc2c1)Nc1ccccc1,-12%,-4%
COc1cc(-c2nc(SCC(=O)Nc3ccc4c(c3)OCO4)c(-c3ccccc3)[nH]2)cc(OC)c1OC,52%[activator],49%[activator]
CCOC(=O)c1ccccc1NC(=O)CSc1nc2ncccc2o1,3%,-7%
Cc1ccc2[nH]cc(CCNC(=O)/C=C/c3ccco3)c2c1,-6%,-1%
NCc1ccc(OCc2cccc(F)c2)cc1,1%,200%[activator]
Cc1ccc(Cl)c2sc(NC(=O)c3ccc(S(=O)(=O)N4CCCC4)cc3)nc12,-12%,-4%
CC(=O)Nc1ccc(Nc2nc(-c3sc(C)nc3C)cs2)cc1,5%,53%[activator]
O=C(Nc1ccc(C(=O)OCc2cc(=O)n3c4c(sc3n2)CCCC4)cc1)c1ccc(F)cc1,-11%,-18%
CC1CCc2c(sc3nnn(CC(=O)Nc4cccc(C(F)(F)F)c4)c(=O)c23)C1 (stereo not given),-9%,-6%
CCCCNC(=O)c1cc(-c2ccc(C)o2)nc2ccccc12,2%,25%
Cc1ccc(CSCCCn2c(=O)c3c(ncn3C)n(C)c2=O)cc1,12%,20%
O=C(CSC1=Nc2ccccc2C2=NC(c3ccccc3)C(=O)N12)Nc1cc(F)ccc1F (stereo not given),96%[activator],17%
C=CCNc1nc(C(=O)OC(C)C(=O)Nc2ccc(F)c(F)c2F)cs1 (stereo not given),-9%,1%
Cn1c(=O)[nH]c(=O)c2c1nc(N1CCN(Cc3cccc(Cl)c3)CC1)n2Cc1ccccc1F,-4%,-11%
COc1ccc(C2C(C(C)=O)=C(O)C(=O)N2c2ccc(C)cc2)cc1 (stereo not given),46%[activator],0%
CN(C)C(CNC(=O)C1CCC(C(C)(C)C)CC1)c1ccsc1 (stereo not given),-12%,-1%
Cc1cccc(-n2cc(-c3ccccc3)nc2SCC(=O)Nc2ccccc2Cl)c1,-12%,31%[activator]
O=C(CN(c1ccccc1F)S(=O)(=O)c1ccccc1)Nc1ccccc1C(=O)O,13%,1%
Cn1c(=O)c2c(nc(NCc3ccco3)n2Cc2ccccc2)n(C)c1=O,?,16µM*
CC(C)C/C(=N\NC(=O)C1CC1c1ccccc1)c1ccccc1 (stereo not given),1%,12%

# Six compounds picked at random from those above:
SMILES,2A Renilla,2A firefly
CCOC(=O)c1ccccc1NC(=O)CSc1nc2ncccc2o1,3%,-7%
O=C(Nc1ccc(C(=O)OCc2cc(=O)n3c4c(sc3n2)CCCC4)cc1)c1ccc(F)cc1,-11%,-18%
Cn1c(=O)c2c(nc(NCc3ccco3)n2Cc2ccccc2)n(C)c1=O,?,16µM*
COC(=O)CNC(=O)c1cc2sccc2n1Cc1ccccc1,-7%,-1%
O=C(COC(=O)COc1ccc2ccccc2c1)Nc1ccccc1,-12%,-4%
Cc1ccc(CNC(=O)CSc2nc3ccccc3o2)cc1,-2%,7%

# The list continues.
SMILES,2A Renilla,2A firefly
COc1ccccc1C(=O)c1c(N)c(-c2nc(-c3ccccc3)cs2)c2ccccn12,176%[activator],18%
COc1cc(/C=C/C(=O)c2ccc(OCC#N)cc2)ccc1OCCC(C)C,-27%,9%
COc1ccc(OCCNC(=O)c2cn(C)c3ccccc23)cc1,16%,6%
CCOC(=O)N1CCc2c(sc3c2c(=O)n(-c2ccccc2)c(=O)n3CC(=O)Nc2ccc(OC)cc2OC)C1,-9%,-12%
COc1ccccc1C(=O)Nc1ccccc1SCc1cc(=O)c2ccccc2[nH]1,0%,18%
CCOC(=O)NC(CNC(=O)CSc1ccccc1)CC(C)C (stereo not given),17%,-1%
COc1cc(OC)c(OC)cc1/C=C/C(=O)c1sc(-c2ccc(O)cc2)nc1C,?,-3%
Cc1cccc(NC(=O)CC2Nc3ccccc3NC2=O)c1C (stereo not given),37%[activator],17%
CCOc1cc(CNC2CN3CCC2CC3)ccc1OCc1ccccc1Cl (stereo not given),-12%,-5%
CN(Cc1cnn(-c2ccccc2)c1)C(=O)c1nn(C)c(=O)c2ccccc12,?,?
c1ccc2cc(CNCCN3CCCC3)ccc2c1,2%,-4%
Cc1c(C(=O)Nc2cccc(C(F)(F)F)c2)sc2nc3n(c(=O)c12)CCCC3,0%,4%
Cc1ccccc1CN1C2=NCCCN2c2ccccc21,-15%,-17%

# Looked up above:
# Cc1ccccc1CN1C2=NCCCN2c2ccccc21 in 2A firefly is entered as -17%
# Cc1ccc(-c2cc(C(=O)NCc3cnn(C)c3C)c3cc(Br)ccc3n2)cc1 in 2A firefly is entered as 11%

# Compound activity (PubChem BioAssay)
